Mtb betalactam – beta-lactam sensitization of Mtb H37Rv, H37Rv | AID 434955, 2010 | inhibition, % at 25 µM | M. tuberculosis H37Rv growth with meropenem, percent inhibition; hits of this screen are not shown here | hit rate 0.27% among 330,000;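 active = about 74% or more and at least 40 points above the plate without the antibiotic, then above 30% in a dose series; inconclusive = first-round hits that could not be retested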;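 note: growth measured after seven days incubation then overnight dye step; 0% = bacteria only wells and 100% = bacteria with antibiotic; twin plates without the antibiotic show which effects depend on it; some results filed as inactive read as strong as hits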
Arbovirus inh – antivirals against arbovirus infection, primary screen, cell-based, full library, 10K replicate subset; AID 1251, 2008; inhibition, % at 10 µM; hit rate 0.37% among 200,000; arbovirus infection cell-based antiviral screen;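 active = inhibition from about 30%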;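 note: bluetongue infection of BSR cells; cell survival read as ATP light after 72 h; 0% = infected wells without compound and 100% = uninfected wells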
RecA splice inh – Mtb RecA intein splicing inhibitors, primary screen, biochemical, fluorescence, HTS. cell-free RecA intein splicing. inhibition, %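 (about 9 µM by stock and volumes)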. hit rate 0.75% among 290,000. AID 2221, 2009; in the data active = inhibition above about 30%; inconclusive = no clear call, values can overlap the other calls;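 note: 0% = vehicle wells and 100% = reference inhibitor control wells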
Target sequence (P9WHJ3 whole entry, looked up, canonical isoform): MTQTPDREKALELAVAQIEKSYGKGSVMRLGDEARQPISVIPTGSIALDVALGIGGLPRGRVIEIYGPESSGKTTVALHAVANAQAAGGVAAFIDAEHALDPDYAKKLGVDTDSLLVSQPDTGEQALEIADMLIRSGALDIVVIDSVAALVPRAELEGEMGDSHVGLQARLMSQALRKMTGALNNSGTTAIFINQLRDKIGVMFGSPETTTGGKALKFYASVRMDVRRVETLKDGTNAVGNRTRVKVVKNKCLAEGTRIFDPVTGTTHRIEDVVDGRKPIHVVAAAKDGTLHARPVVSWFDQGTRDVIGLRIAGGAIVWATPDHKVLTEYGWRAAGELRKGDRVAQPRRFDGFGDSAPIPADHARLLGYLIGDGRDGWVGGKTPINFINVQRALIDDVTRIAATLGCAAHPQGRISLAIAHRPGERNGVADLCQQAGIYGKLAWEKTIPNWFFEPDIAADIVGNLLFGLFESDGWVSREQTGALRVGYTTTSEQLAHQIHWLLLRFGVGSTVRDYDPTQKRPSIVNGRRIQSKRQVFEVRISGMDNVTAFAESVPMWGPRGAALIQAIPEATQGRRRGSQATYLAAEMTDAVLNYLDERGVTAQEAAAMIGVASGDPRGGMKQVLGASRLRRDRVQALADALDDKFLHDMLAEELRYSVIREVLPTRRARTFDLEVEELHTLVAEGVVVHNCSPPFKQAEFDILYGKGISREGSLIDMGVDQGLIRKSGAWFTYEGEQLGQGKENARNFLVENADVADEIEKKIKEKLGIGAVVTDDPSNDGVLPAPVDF
YopH PTP inh – YopH tyrosine phosphatase inhibitors, primary screen, biochemical, fluorescence Ex485/Em525. YopH tyrosine phosphatase [Yersinia enterocolitica]. hit rate 0.16% among 140,000. inhibition, %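 (about 10 µM by stock and volumes)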;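 active = inhibition of 50% or more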;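 note: controls were vehicle for no effect and minimum signal wells for full effect; inactives centre near -20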
Mtb H37Rv – M. tuberculosis H37Rv growth inhibitors, H37Rv strain (AID 1626). hit rate 0.95% among 220,000. one-dose inhibition, % at 10 µM; IC50 in µM for titrated hits. M. tuberculosis H37Rv growth inhibition; higher % means a stronger effect;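 active = confirmed in a dose series; inconclusive = inhibition above 80% but not taken into the dose series; inactive = below 80% or under 30% at every dose of the series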;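 note: bacteria incubated seven days before Alamar blue readout; 0% = bacteria only wells and 100% = bacteria with antibiotic wells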
* hit, by the source's call; ? = inconclusive; nt = no result given.

SMILES | Mtb betalactam | Arbovirus inh | RecA splice inh | YopH PTP inh | Mtb H37Rv
COc1cc([N+](=O)[O-])ccc1NC(=O)NCc1ccco1 | 1.4 | 2.9 | 0.4 | nt | -12.4%
O=C(Cc1ccccc1F)NC1CCSc2ccccc21 (stereo unspecified) | 1.5 | nt | -0.3 | nt | nt
Cc1ccc(/C=N/NC(=O)c2cccc(S(=O)(=O)N3CCOCC3)c2)o1 | -3.4 | 9.7 | 0.2 | nt | -9.0%
CC(C)(C)N(NS(=O)(=O)c1ccc(F)cc1)c1ccccc1 | -1.9 | nt | -4.6 | nt | nt
Cc1nc(-c2ccc(S(=O)(=O)N3CCN(C(c4ccccc4)c4ccccc4)CC3)s2)cs1 | -6.5 | nt | 3.5 | nt | 1.7%
CN(Cc1nc(CCc2ccccc2)no1)Cc1cccs1 | -6.1 | 2.1 | -0.1 | nt | 10.1%
FC(F)(F)c1cc(-c2ccco2)nc(NCCc2ccccc2)n1 | 4.4 | -29.3 | 3.2 | 23.3 | 0.7%
CCOCCCNC(=O)c1c(N)n(-c2ccc(S(N)(=O)=O)cc2)c2nc3ccccc3nc12 | 3.7 | 11.5 | -29.3 | -14.5 | -8.8%
O=C(NCc1ccccc1)C1CCCN(S(=O)(=O)c2ccc(-n3cnnn3)cc2)C1 (stereo unspecified) | 4.5 | nt | -3.2 | nt | nt
O=C(Oc1ccc2ccc(OC(=O)N3CCCCCC3)cc2c1)N1CCCCCC1 | -0.6 | -10.2 | 5.0 | -4.3 | 8.2%
CCCOc1ccc(-c2c(C(=O)N/N=C(\C)c3ccco3)nnn2-c2nonc2N)cc1 | -3.5 | nt | -6.5 | nt | nt
O=C(CSc1c[nH]c2ccccc12)N1CCOCC1 | nt | 15.7 | 6.9 | -57.8 | -4.6%
COCCCN(C(=O)C(C)Oc1ccc(Br)cc1)c1c(N)n(Cc2ccccc2)c(=O)[nH]c1=O (stereo unspecified) | -17.2 | nt | 0.4 | nt | nt
O=C(NCC1CC1)NC(=O)c1c(F)cccc1Cl | -0.3 | nt | -8.4 | nt | -1.8%
Cc1ccc2nc(N/C(N)=N/S(=O)(=O)c3ccc([N+](=O)[O-])cc3)nc(C)c2c1 | 1.1 | -11.8 | 0.7 | -17.3 | 10.7%
Nc1nc(COc2ccc(Cl)cc2)cs1 | -15.4 | -4.7 | -0.6 | nt | >100µM*
COc1ccc(-n2nnc3c(SCC(=O)Nc4ccc5c(c4)OCCO5)ncnc32)cc1 | 32.7 | 12.8 | nt | -0.7 | nt
CCN1CCN(C(=O)c2c(-c3c(Cl)cccc3Cl)noc2C)CC1 | -5.6 | nt | 0.5 | nt | nt
Cc1cccc(-n2ncc3c2CCCC3NC(=O)CCN2CCCCO2)c1C (stereo unspecified) | -5.4 | nt | -0.9 | nt | nt
Cc1nn(CC(=O)Nc2ccc(C(=O)N3CCCCC3)cc2)c(=O)c2ccccc12 | ? | 0.1 | 0.4 | -21.8 | -5.5%
COc1ccc(C(=O)NC2CCN(CC(=O)NC3CCCCC3)CC2)cc1 | -5.4 | nt | -2.2 | nt | nt
CCCOc1ccc(N2C(=O)CC(NCc3cccnc3)C2=O)cc1 (stereo unspecified) | -2.9 | 0.7 | -3.6 | nt | -1.4%
COc1ccc(-c2cc(-c3cccs3)nc(OC)c2C#N)cc1OC | 3.3 | 12.7 | -0.3 | -28.8 | 74.1%
Clc1ccc(-c2c[n+](Cc3ccc(Cl)c(Cl)c3)c3n2CCC3)cc1 | nt | -21.1 | nt | -4.2 | 12.8%
CC1(OC(=O)CCc2ccccc2)C(=O)C=C2C=C(c3ccc(C#N)cc3)N(CC3CC3)C=C2C1=O (stereo unspecified) | -9.7 | nt | -5.7 | nt | -7.3%

Full records as entered above. Values in the order: Mtb betalactam, Arbovirus inh, RecA splice inh, YopH PTP inh, Mtb H37Rv
O=C(NCc1ccccc1)C1CCCN(S(=O)(=O)c2ccc(-n3cnnn3)cc2)C1 (stereo unspecified) is listed as 4.5, nt, -3.2, nt, nt
COc1ccc(-c2cc(-c3cccs3)nc(OC)c2C#N)cc1OC is listed as 3.3, 12.7, -0.3, -28.8, 74.1%
FC(F)(F)c1cc(-c2ccco2)nc(NCCc2ccccc2)n1 is listed as 4.4, -29.3, 3.2, 23.3, 0.7%
CCOCCCNC(=O)c1c(N)n(-c2ccc(S(N)(=O)=O)cc2)c2nc3ccccc3nc12 is listed as 3.7, 11.5, -29.3, -14.5, -8.8%

More results follow.
SMILES | Mtb betalactam | Arbovirus inh | RecA splice inh | YopH PTP inh | Mtb H37Rv
CCS(=O)(=O)C1=NN2C(=N)/C(=C\c3ccc(OS(=O)(=O)c4ccccc4)cc3)C(=O)N=C2S1 | -0.9 | nt | 21.8 | nt | nt
C=C(C)C(=O)Nc1cccc(C2=NOC3(C2)C[C@H](C(N)=O)N(C(=O)CC#N)C3)c1 (stereo partly specified) | -9.1 | nt | 2.8 | nt | 12.1%
CCCOC(=O)c1c(NC(=O)C2C3C=CC(C3)C2C(=O)O)sc2c1CCC(C)C2 (stereo unspecified) | 7.1 | -17.0 | -0.1 | nt | -6.8%
COc1ccccc1NC(=O)CSc1nnc(COc2ccc(Cl)cc2)n1Cc1ccco1 | 2.9 | -11.4 | 11.6 | -60.6 | -2.7%
COc1ccc(C(=O)Cc2ccc(F)cc2)c(OC)c1 | 11.8 | -2.9 | 2.2 | -21.8 | 3.2%
Cc1cccc(NC(=S)N(CCN2CCOCC2)Cc2cc3cc4c(cc3[nH]c2=O)OCO4)c1 | 2.1 | 6.6 | -2.3 | nt | 9.9%
C/C(=N\NC(=S)NCCc1ccccc1)c1cccs1 | 93.3 | -5.3 | 13.2 | -8.7 | 10.4%
CCC(C)C(=O)Nc1ccc(S(=O)(=O)Nc2nccs2)cc1 (stereo unspecified) | 1.4 | nt | -2.1 | nt | nt
O=C(NCCCc1ccccc1)C1CCN(S(=O)(=O)c2ccc(F)cc2)CC1 | -11.2 | nt | -1.7 | nt | nt
Cc1nc(N)nc(SCc2ccc([N+](=O)[O-])cc2)c1N | 1.4 | nt | 0.8 | nt | nt
O=C(CCS(=O)(=O)c1ccc(Cl)cc1)Nc1ccccc1Br | 6.5 | nt | -4.5 | nt | nt
O=C(COC(=O)Cn1cnc2ccccc21)Nc1cccc([N+](=O)[O-])c1 | 4.8 | 2.7 | -4.9 | nt | 3.6%
O=S(=O)(c1ccccc1)c1cc(O)ccc1O | 1.9 | -4.5 | -5.6 | nt | 0.8%
CNc1ccccc1C(=O)OCC(C)=O | 0.4 | 3.8 | -4.3 | -21.7 | -4.2%
COc1ccc(CNC(=O)/C=C/c2ccccc2[N+](=O)[O-])cc1 | -3.5 | 0.5 | 1.5 | nt | 2.5%
Cc1nc2ccccn2c1C(=O)NNS(=O)(=O)c1ccc(Cl)cc1 | 7.3 | nt | -6.1 | nt | 2.1%
Cc1nn(-c2ccccc2)c2c1C(c1ccc(O)c(O)c1)N1C(=N2)C(Nc2ccccc2)=Nc2ccccc21 (stereo unspecified) | 100.1 | -41.5 | -18.3 | -2.5 | 1.5µM*
COc1ccc(/C=N/N2CCOCC2)cc1COc1ccc(Cl)cc1 | 34.2 | -1.4 | 0.4 | -19.2 | -5.5%
CC(C)(C)OC(=O)NCCCC[C@H](NC(=O)c1nc[nH]c1C(=O)NCc1ccc(CNC(=O)OC(C)(C)C)cc1)C(=O)OC(C)(C)C | -1.5 | nt | 0.1 | nt | nt
Cc1ccc(N(Cc2cc(=O)[nH]c3ccccc23)C(=O)C(C)C)c(C)c1 | -1.1 | nt | 0.4 | nt | nt
Cn1nnnc1SC(C(=O)Nc1cccc(C(F)(F)F)c1)c1ccccc1 (stereo unspecified) | 2.8 | 9.8 | -0.2 | -54.4 | -1.1%
c1ccc(-c2cn(-c3ccccc3)c3[n+]2CCCS3)cc1 | -5.0 | nt | 0.3 | nt | -11.5%
CCOc1cc(NC(=S)NCCCN(C)C)c(OCC)cc1NC(=O)c1cccs1 | 6.7 | 2.5 | -2.5 | -11.8 | 9.6%
Cc1ccc(S(=O)(=O)N(C)C)cc1NC(=O)COC(=O)c1n[nH]c(=O)c2ccccc12 | 0.0 | 7.3 | -1.2 | nt | 7.2%
COc1ccc(N2CC(C)Cn3c2nc2c3c(=O)n(CCc3ccccc3)c(=O)n2C)cc1 (stereo unspecified) | nt | nt | 0.5 | nt | -6.0%

The closing 5 compounds of the section above open the next one:
SMILES | Mtb betalactam | Arbovirus inh | RecA splice inh | YopH PTP inh | Mtb H37Rv
Cn1nnnc1SC(C(=O)Nc1cccc(C(F)(F)F)c1)c1ccccc1 (stereo unspecified) | 2.8 | 9.8 | -0.2 | -54.4 | -1.1%
c1ccc(-c2cn(-c3ccccc3)c3[n+]2CCCS3)cc1 | -5.0 | nt | 0.3 | nt | -11.5%
CCOc1cc(NC(=S)NCCCN(C)C)c(OCC)cc1NC(=O)c1cccs1 | 6.7 | 2.5 | -2.5 | -11.8 | 9.6%
Cc1ccc(S(=O)(=O)N(C)C)cc1NC(=O)COC(=O)c1n[nH]c(=O)c2ccccc12 | 0.0 | 7.3 | -1.2 | nt | 7.2%
COc1ccc(N2CC(C)Cn3c2nc2c3c(=O)n(CCc3ccccc3)c(=O)n2C)cc1 (stereo unspecified) | nt | nt | 0.5 | nt | -6.0%
CC(C)(C)C1=CC(=O)C(N2CCOCC2)=CC1=O | -4.7 | -42.2 | -2.0 | -0.5 | -0.1%
COc1cc(C(=O)N/N=C/c2cn(Cc3cccc(F)c3)c3ccccc23)ccc1O | 4.2 | nt | -0.1 | nt | nt
CCOc1ccc(C(=O)/C=C/Nc2ccc(S(=O)(=O)Nc3cc(C)nc(C)n3)cc2)cc1 | 7.8 | nt | -73.2 | nt | nt
COc1ccc(N2CC(C(=O)N(C)CC(=O)Nc3ccc(Cl)c(C(F)(F)F)c3)CC2=O)c(OC)c1 (stereo unspecified) | -3.3 | nt | 1.5 | nt | nt
COc1ccccc1/C=C1\C(=O)NC(=S)N(c2ccccc2)C1=O | ? | nt | -3.5 | nt | nt
CC(OC(=O)CCCSc1nc2ccccc2s1)C(=O)NC(N)=O (stereo unspecified) | -3.5 | -1.8 | 3.5 | nt | 9.3%
CCN(CC)c1ccc(/C=C2\C(=O)N(c3nnc(C)c(=O)[nH]3)N=C2C)cc1 | -1.1 | nt | 80.9* | nt | -0.9%
COc1cccc(N(CC(=O)NCC2CCCO2)C(=O)CNS(=O)(=O)c2ccccc2)c1 (stereo unspecified) | -3.9 | 4.6 | 6.0 | nt | 0.8%
c1ccn2cc(-c3ccc4c(c3)OCO4)cc2c1 | -5.5 | -1.2 | 5.0 | nt | -4.9%
COc1ccc2c(c1)C=Cc1ccccc1O2 | -1.2 | nt | 4.7 | nt | nt
CCc1ccc(NC(=O)CSc2nc(O)cc(=O)n2C2CCCC2)cc1 | 4.8 | 12.1 | nt | nt | -1.6%
O=C(N/N=C\c1ccncc1)c1ccccc1O | 4.8 | 8.0 | -4.1 | nt | -1.7%
Cc1cc(S(=O)(=O)N2CCCC(C)C2)ccc1-n1cnnn1 (stereo unspecified) | -0.8 | nt | 0.0 | nt | nt
CC(C)CCNC(=O)NC(=O)COC(=O)CCN=C1NS(=O)(=O)c2ccccc21 | -7.6 | 6.6 | -2.6 | nt | 0.3%
CC(=O)NNc1cc(C)nc(N)n1 | -0.4 | nt | -4.7 | nt | 2.7%
CC(C)n1c(=S)[nH]c2cc(Cl)ccc21 | 3.5 | nt | 10.7 | nt | -6.7%
Cc1ccc(NC(=O)Cc2ccccc2)c(C)c1 | -3.4 | -1.4 | -0.1 | nt | 3.8%
N#CCSc1ccsc1C(=O)Nc1ccc(F)cc1 | -7.3 | -1.0 | 5.5 | 5.4 | 1.3%
CCN(CC(=O)Nc1c(F)cccc1F)C(=O)c1cccc(S(=O)(=O)N(C)c2ccccc2)c1 | -4.5 | nt | 3.2 | nt | nt
CC(C)C(C(=O)NCC1CCCO1)N(C(=O)CNS(=O)(=O)c1ccccc1)C1CCCCC1 (stereo unspecified) | -4.6 | nt | 0.8 | nt | nt
COc1cc2c(cc1OC)C(C)N(Cc1ccc3c(c1)OCO3)CC2 (stereo unspecified) | -12.2 | -9.5 | -0.4 | nt | 4.3%
CCCN(CCO)Cc1ccc(F)c(Br)c1 | -2.3 | -7.2 | -4.5 | -43.9 | 3.0%
CC1(C)C2CCC1(C)C(OC(=O)CCn1ccnc1)C2 (stereo unspecified) | -6.8 | 2.6 | -1.0 | -16.5 | -2.0%
Cc1cc(Cl)c(S(=O)(=O)NC(C)C)cc1OCC(N)=O | 6.2 | 3.9 | -0.6 | -29.2 | 0.6%
Cc1cc(/C=C2/C(=O)NN(c3ccccc3)C2=O)c(C)n1-c1ccc(O)cc1 | 9.1 | -14.8 | -6.0 | -26.2 | 7.1%
O=C(CCCn1cnc([N+](=O)[O-])n1)Nc1ccc(F)c(Cl)c1 | -5.9 | 0.8 | 1.7 | nt | -0.9%

Some of the compounds tested. The share of hits here may be higher or lower than overall.
